ALR inh: blocks human ALR sulfhydryl oxidase activity; purified ALR, DTT oxidation, H2O2 HRP-luminol luminescence; 290,000 compounds, 3.8% hits; AID 485317; P55789; inhibition, % (concentration not given with the values);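 active = mean and each replicate at 75% or more; inconclusive = only one of the two met; inactive = neither met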;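 note: stock transfer was 7.5 nL into about 7.5 µL; 0% = neutral wells and 100% = wells with inactivated enzyme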
Target sequence (P55789 whole entry, looked up): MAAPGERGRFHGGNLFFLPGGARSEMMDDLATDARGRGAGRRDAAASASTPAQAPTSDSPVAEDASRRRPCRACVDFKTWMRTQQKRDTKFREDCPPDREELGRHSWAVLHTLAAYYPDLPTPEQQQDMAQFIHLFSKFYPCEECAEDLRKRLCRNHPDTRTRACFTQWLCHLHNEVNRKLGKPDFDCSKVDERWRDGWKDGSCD
HNF4A DNA FP: change in binding of human HNF4 alpha to DNA. activity change, % at 10 µM. 360,000 compounds, 0.3% hits. P41235. HNF4a-FITC DNA binding, fluorescence polarization, 1 h. AID 1224865; in the data active = activity change above about 30%, passing the limit was not always enough;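 note: controls were the assay level and a saturating level of protein; the project sought stronger binding though the title names inhibitors; some compounds called inactive have numbers as strong as hits; positive values seem to mean higher polarization but the record does not say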
Vif TR-FRET: inhibitors of Vif binding to APOBEC3G peptide, primary screen, biochemical, TR-FRET, GST-Vif 1-94, biotin-A3G peptide, dose response retest (AID 1117319); 260,000 compounds, 0.57% hits; TR-FRET GST-Vif / biotin-A3G peptide binding; higher % means a stronger effect; test concentration not given here; strong numbers were not always called active; inhibition, %, or IC50 in µM where a hit was titrated;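 active = above the screen mean plus three standard deviations and confirmed in dose response; inconclusive = results disagree or hit not tested in dose response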;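 note: Vif residues 1-94 fused to GST binding biotinylated APOBEC3G peptide 110-148; 0% = full assay without inhibitor and 100% = GST in place of GST-Vif; retest series ran down from 100 µM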
Ecoli growth: blocks Escherichia coli growth. OD600, 23 h; stronger effect = lower value. OD600 absorbance (concentration not given with the values). 330,000 compounds, 0.21% hits;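 active = OD600 absorbance below the run mean of sample wells minus 3.6 SD, in any replicate, cut at about 0.56 in these data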;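 note: stock transfer was 300 nL into about 60 µL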
rRNA inh HTS: selective bacterial rRNA inhibition in E. coli; E. coli WT GFP vs humanized-ribosome RFP mutants, fluorescence, 24 h; stronger effect = lower value; DMSO median 0, no signal -100; GFP signal change (wild-type ribosome), % (test concentration not listed); 350,000 compounds, 1.6% hits; AID 720706;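 active = significant combined selectivity score with lowered wild-type GFP, culture density cut under 30%, mutant RFP and density less affected; inactive = any of these conditions unmet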; note: one replicate is shown; some compounds called inactive have numbers as strong as hits
FGF22 binding: binders of recombinant human FGF22 by thermal shift | calls only at 9.99 µM | SYPRO orange fluorescence; percent of sucrose octasulfate shift, DMSO zero | Q9HCT0 | AID 651658 | 340,000 compounds, 1.5% hits;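 active = melting point raised past a set limit in the mean and every replicate; inconclusive = no clear call; three in four hits are not shown here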
Target sequence (Q9HCT0 whole entry, looked up): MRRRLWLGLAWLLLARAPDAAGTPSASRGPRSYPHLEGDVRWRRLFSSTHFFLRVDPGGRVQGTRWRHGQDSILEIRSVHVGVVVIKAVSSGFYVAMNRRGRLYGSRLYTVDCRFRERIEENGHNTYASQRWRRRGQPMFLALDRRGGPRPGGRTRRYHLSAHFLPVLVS
AF4-AF9 inh: MLL-AF4/AF9 protein interaction inhibition | P42568 | AlphaScreen, biotin-AF4 peptide binding to FLAG-AF9 | inhibition, % at 10 µM | 350,000 compounds, 0.47% hits | AID 651704;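 active = every replicate reaching a set inhibition limit, whatever the replicate mean, cut at about 25% in these data; inconclusive = mean inhibition reaches that limit but some replicates miss it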;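 note: 0% = plate neutral control median and 100% = total signal loss; the record names both 10 and 1 µM as test concentration; the first replicate is given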
Target sequence (P42568 whole entry, looked up): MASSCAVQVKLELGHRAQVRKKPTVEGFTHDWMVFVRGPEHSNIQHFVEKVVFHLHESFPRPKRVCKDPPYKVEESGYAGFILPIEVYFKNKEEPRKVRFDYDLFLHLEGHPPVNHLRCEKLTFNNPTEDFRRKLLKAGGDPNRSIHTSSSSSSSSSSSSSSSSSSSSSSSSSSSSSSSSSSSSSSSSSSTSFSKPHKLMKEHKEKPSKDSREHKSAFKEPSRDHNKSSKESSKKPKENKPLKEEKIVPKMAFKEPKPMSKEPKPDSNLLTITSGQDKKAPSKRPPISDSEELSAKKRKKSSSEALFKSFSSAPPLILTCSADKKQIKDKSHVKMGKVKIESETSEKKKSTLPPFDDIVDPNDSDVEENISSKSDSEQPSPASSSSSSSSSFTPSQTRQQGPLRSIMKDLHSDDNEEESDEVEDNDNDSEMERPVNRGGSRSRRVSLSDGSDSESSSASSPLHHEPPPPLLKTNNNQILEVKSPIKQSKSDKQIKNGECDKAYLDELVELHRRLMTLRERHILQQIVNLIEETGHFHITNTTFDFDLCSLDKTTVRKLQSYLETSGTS
rRNA inh HTS OD600: recorded beside rRNA inh HTS, whose call it bears; OD600 change, %; measured here: OD600 growth;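 optical density of the mix in the first replicate; 0 = DMSO median and -100 = no signal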
rRNA inh HTS RFP: further read-out of rRNA inh HTS, marked with its call; RFP signal change, %; measured here: RFP humanized mutant strains;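 first replicate; 0 = DMSO median and -100 = no signal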
Numbers without * were called inactive; i = inactive; u = inconclusive; x = no result given.

SMILES | ALR inh | HNF4A DNA FP | Vif TR-FRET | Ecoli growth | rRNA inh HTS | rRNA inh HTS OD600 | rRNA inh HTS RFP | FGF22 binding | AF4-AF9 inh
C[C@@H]1CN([C@@H](C)CO)S(=O)(=O)c2ccc(C#C[C@@H](C)O)cc2O[C@@H]1CN(C)Cc1cccnc1 | x | x | x | x | -1.7 | 1.9 | -1.2 | i | -0.5
CC(C)=CCN1CCN(Cc2c(C)nn(C)c2Cl)CC1CCO (stereo not drawn) | -0.6 | -6.6 | 8.0% | 0.639 | x | x | x | i | -1.5
COc1ccccc1CNc1n[nH]c(NCc2ccccc2OC)n1 | 11.9 | 0.2 | 1.4% | 0.718 | x | x | x | x | x
Cc1c(OC(C)C(=O)NCc2ccncc2)ccc2c3c(c(=O)oc12)CCCC3 (stereo not drawn) | -1.6 | 2.0 | x | 0.62 | -6.3 | -18.5 | 0.3 | i | -5.9
CCCCc1nc2n[nH]c(N)c2c2c1CCCC2 | 10.7 | -1.7 | -8.3% | 0.736 | x | x | x | x | x
Cc1cc(C)n2nc(-c3ccc(Br)cc3)cc2n1 | x | -0.6 | -37.9% | 0.681 | 8.0 | 6.5 | -0.9 | i | 2.0
Cc1ccc(NC(=O)CS(=O)CC(=O)Nc2ccc(N3CCOCC3)cc2)cc1Cl (stereo not drawn) | 52.9 | 1.1 | -10.5% | 0.68 | x | x | x | x | x
CC(C)(C)OC(=O)N1CCN(C(=O)c2nc[nH]c2C(=O)N2CCN(c3ccccc3)CC2)CC1 | 16.1 | -1.6 | x | 0.716 | 6.7 | 10.0 | 4.4 | i | -1.8
O=C(O)C1C2C=CC(O2)C1C(=O)Nc1ccccc1C(F)(F)F (stereo not drawn) | -19.2 | -2.5 | 4.0% | 0.732 | x | x | x | x | x
Cc1cc(C)nc(N2CCCC(C(=O)Nc3ccc4c(c3)OCO4)C2)n1 (stereo not drawn) | -11.1 | -4.9 | 19.7% | 0.739 | x | x | x | x | x
O=C(CN1C(=O)C2CCCCC2C1=O)Nc1ccc(S(=O)(=O)Nc2ncccn2)cc1 (stereo not drawn) | -0.7 | -2.3 | u | 0.654 | 12.6 | 4.1 | 1.1 | i | -0.2
O=C(NCc1ccc(F)cc1)OC1CC2CC1[C@H]1CCCCN1C2=O (stereo partly drawn) | x | -3.9 | x | x | 3.1 | 5.6 | -0.3 | i | -3.6
O=C(CN1CCN(S(=O)(=O)c2ccccc2)CC1)Nc1ccc([N+](=O)[O-])cc1 | -1.4 | -1.2 | 29.5% | 0.65 | -2.2 | 0.5 | 0.7 | i | -33.6
CNCc1cn2cc(Cl)ccc2n1 | x | 0.2 | -0.9% | 0.616 | x | x | x | x | x
O=C(C[C@H]1C[C@H]2c3cc(NS(=O)(=O)c4ccc(F)cc4)ccc3O[C@H]2[C@@H](CO)O1)NCCc1ccccc1 | x | x | x | x | 0.0 | -10.0 | -1.4 | i | -0.9
O=C(CCc1ccccc1)Nc1ccc(N2CCOCC2)cc1 | 2.0 | -6.2 | 20.5% | 0.685 | x | x | x | x | x
Cc1nc(NCCOc2ccccc2)sc1C(=O)Nc1ccccc1 | -0.6 | 0.7 | 13.5% | 0.622 | 8.8 | 15.1 | 1.6 | x | -0.2
Cc1ccccc1CS(=O)(=O)CCC(=O)N1CCN(c2ccc(N3CCOCC3)nn2)CC1 | x | 3.0 | -1.9% | 0.698 | x | x | x | x | x
C[C@@H]1CN([C@@H](C)CO)C(=O)c2cc(NC(=O)c3ccncc3)ccc2O[C@@H](C)CCCCO[C@H]1CN(C)C(=O)NC1CCCCC1 | x | x | x | x | 4.6 | 4.5 | 2.9 | i | -3.4
COc1ccc(NC(=O)CSc2nc(C3CC3)nc3ccccc23)c(OC)c1 | -3.7 | 0.0 | x | 0.682 | -0.5 | -2.8 | -2.8 | i | 10.6
CCCOCC(O)CCc1n[nH]c(=S)n1-c1ccccc1 (stereo not drawn) | 29.0 | 1.1 | u | 0.725 | 17.6 | 15.5 | 0.5 | i | 4.0
C[C@@H]1CN([C@H](C)CO)C(=O)c2cc(C#Cc3cccc(F)c3)cnc2O[C@H]1CN(C)C(=O)C1CC1 | x | x | x | x | -1.6 | 0.4 | 1.5 | i | -0.2
COc1cc2c(cc1OC)C(c1cccs1)N(C(=O)c1ccncc1)CC2 (stereo not drawn) | -4.3 | 0.6 | -8.3% | 0.698 | 4.3 | -6.8 | -2.5 | i | 7.9
Cc1ccc(C(=O)N2CCN(c3ccc(NC(=O)c4cccnc4)cc3)CC2)cc1 | -1.3 | 2.3 | 7.6% | 0.756 | x | x | x | x | x
O=C(Nc1nnc(-c2ccc(Br)cc2)o1)c1ccco1 | 2.9 | 1.3 | -13.4% | 0.654 | x | x | x | x | x
C[C@@H]1CN([C@@H](C)CO)C(=O)c2cc(C#C[C@@H](C)O)cnc2O[C@H]1CN(C)Cc1cncnc1 | x | x | x | x | 0.5 | -4.2 | 2.4 | i | -3.4
C=CCS(=O)(=O)c1nc2ccccc2s1 | 38.1 | -0.3 | -3.2% | 0.769 | x | x | x | x | x
CC(O)(c1ccccc1)c1nc(/C=C/c2ccccc2)cs1 (stereo not drawn) | x | 2.3 | x | x | -53.8 | -78.4 | -14.9 | i | 11.9
COc1cccc(NC(=O)N[C@H]2C=C[C@@H](CC(=O)NCc3ccccn3)O[C@H]2CO)c1 | x | x | x | x | -0.1 | 3.1 | -1.1 | i | -0.3
CCOC(=O)C1=NN(c2ccccc2)C(=O)C1 | x | 3.9 | x | 0.643 | -10.4 | -1.0 | -0.4 | i | 3.5
CC(C)(C)C(=O)Nc1nc2cc3c(cc2s1)OCO3 | -0.9 | 3.2 | -5.1% | 0.691 | -3.0 | -7.7 | 2.5 | i | 6.1
Nn1c(SCc2cccc(F)c2)nnc1-c1ccncc1 | -15.3 | 14.0 | 15.6% | 0.629 | 3.2 | 6.0 | 1.4 | i | -7.4
Nc1nc(N)nc(-c2ccc([N+](=O)[O-])o2)n1 | x | -1.6 | -1.1% | 0.506* | -5.3* | -5.0* | -5.0* | i | -3.4
C[C@H](CO)N1C[C@H](C)[C@@H](CN(C)Cc2cncnc2)Oc2ncc(-c3cccc(F)c3)cc2C1=O | x | x | x | x | -1.9 | 3.0 | -0.7 | i | -5.0
COc1ccc(OC)c(S(=O)(=O)NC(C)CCc2ccccc2)c1 (stereo not drawn) | 0.7 | 1.8 | x | 0.689 | -22.1 | -19.6 | -2.4 | i | 2.7
O=C(CCN1C(=O)c2cccc3cccc(c23)C1=O)NCC1CCCO1 (stereo not drawn) | x | 7.9 | -1.4% | 0.7 | 9.1 | 9.2 | 1.7 | i | -2.2
CC(C)c1ccccc1NC(=O)Nc1nnc([C@H]2C[C@H](O)[C@@H](CO)O2)s1 | x | -4.9 | x | x | 7.0 | 8.0 | -1.4 | i | -0.6
Cc1noc(C)c1NC(=O)Nc1ccc2c(c1)C(=O)N([C@@H](C)CO)C[C@H](C)[C@H](CN(C)Cc1ccc(C(F)(F)F)cc1)OCCCC[C@H](C)O2 | x | x | x | x | -0.4 | -13.1 | 5.8 | i | 10.8
O=C(Cc1ccccc1)Nc1ccc(N2CCOCC2)cc1N1CCOCC1 | x | -1.2 | 1.7% | 0.671 | x | x | x | x | x
CC(=O)O[C@H]1CC[C@@]2(C)C(CCC3C2CC[C@]2(C)OC(=O)CCC32)C1 (stereo partly drawn) | x | 0.8 | -1.8% | 0.664 | x | x | x | x | x
CCOC(=O)c1c(NCC2CCCO2)c2ccccc2[nH]c1=O (stereo not drawn) | -5.9 | -5.1 | -1.5% | 0.736 | x | x | x | x | x
N#Cc1ccc2nc(-c3ccc(CN4CCC(c5nc6ccccc6[nH]5)CC4)cc3)c(-c3ccccc3)nc2c1 | x | x | x | x | -0.2 | -24.6 | 16.7 | i | 2.3
O=C1c2ccccc2C(=O)N1C(CO)C(O)c1ccc([N+](=O)[O-])cc1 (stereo not drawn) | -0.3 | 0.6 | 3.8% | 0.665 | 8.8 | 0.5 | -3.3 | i | -1.9
CC1(C)CC(=O)C2=C(C1)NC1=C(C(=O)c3ccccc31)C2c1ccc(Cl)cc1 (stereo not drawn) | 0.7 | 0.6 | x | 0.7 | x | x | x | x | x
O=C(C[C@H]1C[C@H]2c3cc(NC(=O)Nc4ccccc4F)ccc3O[C@H]2[C@@H](CO)O1)NCc1ccc2c(c1)OCO2 | x | x | x | x | 4.4 | 5.3 | -2.6 | i | -4.9
COc1ccc2[nH]c3c(c2c1)CCN1C(=O)C(CC(=O)NCC24CC5CC(CC(C5)C2)C4)C[C@H](C(=O)N2CCCCC2)[C@@]31C (stereo partly drawn) | x | -6.0 | 3.3% | 0.72 | 10.4 | -7.4 | 1.2 | i | 5.1
CC(=O)N1N=C(c2cccc([N+](=O)[O-])c2)OC1c1cccc(Br)c1 (stereo not drawn) | 9.9 | -1.5 | -3.0% | 0.648 | 7.1 | 2.0 | -9.0 | i | 12.3
S=c1[nH]ccn1-c1ccc(Cl)cc1 | x | 1.3 | x | 0.712 | 13.0 | 5.0 | 0.5 | i | -0.8
COC(=O)NC(=S)N1CCOCC1 | -5.4 | 3.0 | -4.6% | 0.721 | x | x | x | x | x
Cc1cccc(S(=O)(=O)N2CCCCN3[C@H](C2)[C@H](c2ccc(C#C[C@H](C)O)cc2)[C@@H]3CO)c1 | x | x | x | x | -2.9 | -25.7 | 4.0 | i | -1.8
CCN(CC(=O)Nc1c(C(=O)OC)[nH]c2ccc(C)cc12)c1ccc2c(c1)OCO2 | 27.9 | 1.1 | u | 0.718 | x | x | x | x | x
O=C(Nc1ccccc1F)c1ccc(-c2cccc([N+](=O)[O-])c2)o1 | -3.0 | -2.9 | x | 0.692 | 16.6 | 15.3 | 0.5 | i | -0.5
O=C(Nc1nncs1)c1c(F)c(F)c(F)c(F)c1F | 1.4 | -0.1 | 64.3% | 0.718 | x | x | x | x | x
CCOC(=O)C1CCN(C(=O)CCS(=O)(=O)c2ccc3c(c2)n(C)c(=O)c(=O)n3C)CC1 | -2.1 | 0.5 | x | 0.712 | 4.0 | 5.2 | 2.9 | i | -3.9
O=C(NCCN1CCN(C(=O)c2cccc(OC(F)F)c2)CC1)c1cccc(OC(F)F)c1 | -5.1 | -0.6 | -17.7% | 0.716 | -0.4 | -2.2 | 0.9 | i | -1.6
COc1ccc(/C=C2/CSC/C(=C/c3ccc(OC)c(OC)c3)C2=O)cc1OC | x | 3.5 | -0.3% | x | 0.3 | -9.3 | 4.4 | i | 3.7
Cc1ccc(S(=O)(=O)N2CCN(C(=O)c3n[nH]c(=O)c4ccccc34)CC2)c(C)c1 | 1.2 | -3.0 | x | 0.706 | -3.0 | -1.4 | 0.6 | i | 1.8
Nc1nc(-c2ccccc2)cc(N2CCCCC2)n1 | -1.8 | -1.2 | -0.8% | 0.683 | x | x | x | x | x
COc1ccc(NC(=O)/C(=C\c2ccc(OC)c(OC)c2)NC(=O)c2ccco2)cc1 | -6.1 | 2.9 | 4.0% | 0.693 | -2.3 | 3.7 | -3.7 | i | -0.3

These rows are one share of the data (hit frequency here may not be typical).
